Ecoli rRNA inh = inhibits bacterial ribosomal RNA function over humanized ribosomes; E. coli WT GFP vs humanized-ribosome RFP mutants, fluorescence, 24 h; stronger effect = lower value; DMSO median 0, no signal -100; GFP signal change (wild-type ribosome), % (test concentration not listed); 1.6% of 350,000 active;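 active means significant combined selectivity score with lowered wild-type GFP, culture density cut under 30%, mutant RFP and density less affected; inactive means any of these conditions unmet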; further: one replicate is shown; some compounds called inactive have numbers as strong as hits
Beta cell apopt = beta cell apoptosis inhibition; INS-1E cytokine-induced death, ATP luminescence, 48 h; percent of positive-control rescue, neutral wells zero; protection from apoptosis, % (test concentration not listed); 0.8% of 300,000 active; AID 435005;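 active means all replicates at 75% or more, or half of them and the mean; inconclusive means half reach 75% but not the mean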;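 further: 0% = cytokine-treated negative control wells and 100% = positive control rescue; higher means more ATP so stronger rescue from cytokine killing; wells of about 40 µL received 100 nL stock; the first replicate is given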
FGF22 binding = shifts melting point of recombinant human FGF22 | 1.5% of 340,000 active | Q9HCT0 | calls only at 9.99 µM | recombinant FGF22 thermal shift, SYPRO orange fluorescence; percent of sucrose octasulfate shift, DMSO zero;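 active means melting point raised past a set limit in the mean and every replicate; inconclusive means no clear call; three in four hits are not shown here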
Target sequence (Q9HCT0 whole entry, looked up): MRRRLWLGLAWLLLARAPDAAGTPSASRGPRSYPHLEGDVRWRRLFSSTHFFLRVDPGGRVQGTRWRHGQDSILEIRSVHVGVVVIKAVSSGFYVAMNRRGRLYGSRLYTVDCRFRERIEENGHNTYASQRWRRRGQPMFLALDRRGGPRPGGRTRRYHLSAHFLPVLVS
MLL AF4-AF9 inh = blocks AF4 peptide binding to human AF9. P42568. AlphaScreen, biotin-AF4 peptide binding to FLAG-AF9. inhibition, % at 10 µM. 0.47% of 350,000 active. AID 651704;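 active means every replicate reaching a set inhibition limit, whatever the replicate mean, cut at about 25% in these data; inconclusive means mean inhibition reaches that limit but some replicates miss it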;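 further: 0% = plate neutral control median and 100% = total signal loss; the record names both 10 and 1 µM as test concentration; the first replicate is given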
Target sequence (P42568 whole entry, looked up): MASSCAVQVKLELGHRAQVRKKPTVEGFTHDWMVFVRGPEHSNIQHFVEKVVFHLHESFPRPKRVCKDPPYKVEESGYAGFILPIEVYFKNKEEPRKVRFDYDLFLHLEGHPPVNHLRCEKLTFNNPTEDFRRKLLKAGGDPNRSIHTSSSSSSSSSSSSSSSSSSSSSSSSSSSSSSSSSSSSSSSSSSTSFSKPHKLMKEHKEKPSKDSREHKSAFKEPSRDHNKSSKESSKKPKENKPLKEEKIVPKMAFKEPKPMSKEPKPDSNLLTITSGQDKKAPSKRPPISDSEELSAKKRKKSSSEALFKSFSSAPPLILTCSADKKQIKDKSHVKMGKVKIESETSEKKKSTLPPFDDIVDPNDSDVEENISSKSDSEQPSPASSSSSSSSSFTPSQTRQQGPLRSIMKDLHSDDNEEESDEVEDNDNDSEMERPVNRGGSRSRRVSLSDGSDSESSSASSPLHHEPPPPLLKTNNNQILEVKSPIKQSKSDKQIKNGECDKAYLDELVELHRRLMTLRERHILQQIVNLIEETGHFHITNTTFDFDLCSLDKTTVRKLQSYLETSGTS
ALR H2O2 inh = blocks human ALR sulfhydryl oxidase activity; P55789; purified ALR, DTT oxidation, H2O2 HRP-luminol luminescence; 3.8% of 290,000 active; inhibition, % (no concentration beside the values);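 active means mean and each replicate at 75% or more; inconclusive means only one of the two met; inactive means neither met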;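 further: stock transfer was 7.5 nL into about 7.5 µL; 0% = neutral wells and 100% = wells with inactivated enzyme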
Target sequence (P55789 whole entry, looked up): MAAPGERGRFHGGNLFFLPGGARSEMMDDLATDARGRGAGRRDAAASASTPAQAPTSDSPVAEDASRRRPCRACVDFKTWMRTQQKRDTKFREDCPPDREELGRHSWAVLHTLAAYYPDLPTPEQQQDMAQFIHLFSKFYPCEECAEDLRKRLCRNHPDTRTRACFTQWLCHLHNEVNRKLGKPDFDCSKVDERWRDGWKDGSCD
Calb FLC = affects C. albicans growth with fluconazole. C. albicans CaCi-2 (fluconazole-resistant clinical isolate) + fluconazole, Alamar Blue growth, 48 h. growth inhibition, % (concentration not given with the values). 0.57% of 300,000 active;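 active means most replicates above 75%; inconclusive means exactly half above 75%; inactive means most below 75%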;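 further: all wells also contain fluconazole at 8 µg/ml as a sub-toxic cotreatment; 0% = median of DMSO wells and 100% = median of geldanamycin control wells; wells of about 8 µL received 7.5 nL stock; the first replicate is given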
RanGTP-Impb inh = inhibitors of RanGTP-importin-beta interaction, primary screen, biochemical, FRET, CFP-Ran, YFP-importin-beta, homogeneous. cell-free CFP-Ran/YFP-importin-beta FRET ratio. inhibition, % (no concentration beside the values). 1.1% of 300,000 active;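 active means most replicates above 15%; inconclusive means exactly half above 15%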;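 further: 0% = DMSO wells and 100% = Ran loaded with GDP instead of GTP; wells of about 40 µL received 100 nL stock; the first replicate is given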
T cruzi inh = T. cruzi replication inhibition. 1.4% of 300,000 active. T. cruzi beta-gal in NIH3T3, luminescence, 90 h. inhibition, % (concentration not given with the values);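 active means mean inhibition across valid replicates above about 55%, limit read from the data; inconclusive means mean below that limit but half or more replicates reach it; inactive means mean below it, under half of replicates reach it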;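 further: signal also drops with host cell toxicity which is not excluded here; 0% = plate median of DMSO wells and 100% = zero luminescence signal; higher percent means less beta-gal luminescence so fewer parasites; stock transfer was 50 nL into about 50 µL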
Ecoli rRNA inh OD600 = also measured in Ecoli rRNA inh; calls as there; OD600 change, %; measured here: OD600 growth;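 optical density of the mix in the first replicate; 0 = DMSO median and -100 = no signal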
Ecoli rRNA inh RFP = second read-out of Ecoli rRNA inh, no call of its own (marks repeat the call); RFP signal change, %; measured here: RFP humanized mutant strains;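 first replicate; 0 = DMSO median and -100 = no signal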
* = called active by the depositor; i = inactive; ? = inconclusive; · = no result given.

SMILES	Ecoli rRNA inh	Ecoli rRNA inh OD600	Ecoli rRNA inh RFP	Beta cell apopt	FGF22 binding	MLL AF4-AF9 inh	ALR H2O2 inh	Calb FLC	RanGTP-Impb inh	T cruzi inh
O=C(O)c1cccc(S(=O)(=O)N2CCCC2)c1	11	-4	-9.3	-4	i	7.4	-4	-16	0.4	-11
CCOc1ccc2c(c1)C(C)=CC(C)(C)N2	4	9	4.0	5	i	·	-40	·	·	·
Cc1cccc(N(C(=O)Cn2nnc3ccccc32)C(C(=O)NCc2ccco2)c2ccncc2)c1 (stereo not given)	·	·	·	-2	·	·	0	-10	5.2	-24
C[C@@H](C(=O)Nc1ccccc1N1CCOCC1)N1C(=O)C2CC=CCC2C1=O (stereo not given in full)	·	·	·	-2	·	·	-2	-1	-2.9	0
Cc1ccc(/C=N/NC(=O)CNC(=O)COc2ccccc2)o1	16	8	-1.7	2	i	0.3	12	-4	4.7	2
CC(=O)c1cc(NC(=O)c2ccc(Cl)cc2)c(=O)oc1/C=C/N(C)C	·	·	·	-8	·	·	97*	4	-0.7	-5
CC(=O)N(Cc1ccco1)c1nc(C(=O)Nc2ccc(Cl)cc2)c(C)s1	·	·	·	3	·	·	18	14	1.3	15
Cc1noc(C(=O)Nc2cccc(Cl)c2)c1Cl	-15	-17	-11	1	i	-5.7	-5	3	2.1	-7
CC(=C/C(=O)O)/C=C/c1cccs1	·	·	·	-3	·	·	4	2	6.0	-8
N#Cc1ccccc1Sc1ccccc1C(=O)NCC(c1ccco1)N1CCCC1 (stereo not given)	1	4	9.0	-8	i	27*	0	-5	5.8	44
Fc1cccc(/C=N/Nc2nc3ccccc3[nH]2)c1	-3	21	5.0	13	i	?	31	0	0.2	28
CCCc1cc(C(=O)Nc2ccc(C(=O)c3ccc(F)cc3)cc2)n(C)n1	·	·	·	15	·	·	-5	28	-0.1	8
O=C(CCN1C(=O)/C(=C\c2ccccc2F)SC1=S)N1CCCCC1	5	4	-2.3	-45	i	0.0	-5	-2	0.0	0
CC1=CC2=NC(=O)CC(C)(C(=O)N(CC(=O)NC3CCCC3)c3ccccc3C)N2C=C1 (stereo not given)	6	17	-5.5	1	i	-7.9	-8	-1	5.0	-10
CCn1c(COc2ccccc2C)nnc1SCC(=O)Nc1cc(C)on1	·	·	·	-4	·	·	-5	-12	0.1	-1
O=C(Cn1ccc(C(F)(F)F)n1)N=Nc1c(O)[nH]c2ccc(Br)cc12	1	-5	-3.1	-5	i	-27	·	6	5.5	0
CC(=O)Nc1ccc(S(=O)(=O)Nc2nc3cc4c(cc3nc2Cl)OCCO4)cc1	7	-2	0.2	2	i	-11	·	-1	11	2
Cn1nc(C(=O)N2CCCC2)c2ccccc2c1=O	·	·	·	-5	·	·	-1	21	-2.0	8
O=C(CSc1nnc(NC(=O)c2ccco2)s1)Nc1ccccc1F	16	16	5.2	-1	i	-1.0	·	-2	-0.2	1
CC(C)C[C@@H](CC#N)N1CCN(Cc2ccccc2)CCC1=O	-3	5	2.2	1	i	-0.3	-1	1	1.8	-14
CC(C)c1ccc(/C=C/C(=O)NCc2ccc(S(N)(=O)=O)cc2)cc1	-17	-31	3.8	2	i	1.4	10	-2	1.0	2
COc1cccc(/C=N/NC(=O)NC2CCCCC2)c1O	-2	-1	-2.9	-5	i	-0.5	90*	14	5.2	7
COc1ccc(N(CC(=O)N2CCc3ccccc32)S(=O)(=O)c2c(C)noc2C)cc1	·	·	·	0	·	·	-19	-25	2.2	6
CC(C)(C)C(=O)Nc1cccc(-c2nnc(-c3cccc(NC(=O)C(C)(C)C)c3)o2)c1	·	·	·	8	·	·	-5	-7	-3.8	27
O=C(O)c1ccc(-c2nc3scc(-c4ccccc4)c3c(=O)[nH]2)cc1	8	5	3.1	-6	i	1.7	-15	1	5.6	13
CCOC(=O)CC1C(=O)NCCN1C(=O)c1cccc(C(F)(F)F)c1 (stereo not given)	·	·	·	-1	·	·	-1	-17	-1.1	-1
Cc1cnc(NC(=O)c2ccc3c(c2)C(=O)N(Cc2ccco2)C3=O)s1	·	·	·	-5	·	·	23	-5	3.0	-1
Cc1cc(N2CCN(CC(O)C(F)(F)F)CC2)c2ccccc2n1 (stereo not given)	-1	11	2.9	-6	i	1.1	-1	6	1.9	3
COc1ccc(-c2cc(C(F)(F)F)nc(NC3CCCC3)n2)cc1OC	·	·	·	4	·	·	·	-9	1.5	25
COc1ccc(N2CCN(C(=O)Cn3ncc4c([nH]c5ccccc54)c3=O)CC2)cc1	5	7	1.8	-2	i	-5.9	-9	0	8.1	-12
CCN(CC)C(=O)c1ccccc1NS(=O)(=O)c1ccc(OC)c(C(=O)N2CCOCC2)c1	8	16	-1.9	-2	i	-5.8	-15	-3	-4.0	2
CS(=O)(=O)c1ccc(-c2cccc(NC(=O)c3ccco3)c2)nn1	13	11	1.0	-1	i	-0.7	-5	-14	-5.2	-6
COC(=O)Cc1ccc(OC(=O)CCS(=O)(=O)c2ccc(C)cc2)cc1	13	4	0.9	1	i	2.1	-2	-9	-1.5	-6
COc1cccc2cc(C(=O)NCC3CCCO3)c(=O)oc12 (stereo not given)	·	·	·	0	·	·	·	5	-3.0	-5
Cc1cc(N2C(=O)C(O)=C(C(=O)c3ccc(C)o3)C2c2cccs2)no1 (stereo not given)	·	·	·	-3	·	·	·	-1	9.2	-9
CCCN(C(=O)CSc1nc2cc(S(=O)(=O)N(CC)CC)ccc2o1)C1CCS(=O)(=O)C1 (stereo not given)	0	1	-0.9	-2	i	-4.9	·	6	4.1	2
O=C(CN1CCCC1)Nc1ccc(-c2nc3cc(NC(=O)CN4CCCC4)ccc3o2)cc1	·	·	·	10	·	·	2	?	-2.3	51
Cc1cc(C)c(C)c(S(=O)(=O)N[C@@H](C)C(=O)OC(C)C(=O)NC(N)=O)c1C (stereo not given in full)	2	5	-4.1	-1	i	-1.4	·	?	1.9	3
Cc1nc(C#N)c(N/N=C/c2cccc(Cl)c2)o1	-55	-78	-15	8	i	2.5	97*	28	3.8	-10
COP(=O)(/C=C/c1ccccc1)C(O)c1ccc(F)cc1 (stereo not given)	·	·	·	-4	·	·	-1	-1	-1.1	-6

Four of the compounds above, with each value named.
smiles: Cc1cc(N2C(=O)C(O)=C(C(=O)c3ccc(C)o3)C2c2cccs2)no1 (stereo not given)
  Ecoli rRNA inh = · | Ecoli rRNA inh OD600 = · | Ecoli rRNA inh RFP = · | Beta cell apopt = -3 | FGF22 binding = · | MLL AF4-AF9 inh = · | ALR H2O2 inh = · | Calb FLC = -1 | RanGTP-Impb inh = 9.2 | T cruzi inh = -9

smiles: CCCN(C(=O)CSc1nc2cc(S(=O)(=O)N(CC)CC)ccc2o1)C1CCS(=O)(=O)C1 (stereo not given)
  Ecoli rRNA inh = 0 | Ecoli rRNA inh OD600 = 1 | Ecoli rRNA inh RFP = -0.9 | Beta cell apopt = -2 | FGF22 binding = i | MLL AF4-AF9 inh = -4.9 | ALR H2O2 inh = · | Calb FLC = 6 | RanGTP-Impb inh = 4.1 | T cruzi inh = 2

smiles: O=C(CN1CCCC1)Nc1ccc(-c2nc3cc(NC(=O)CN4CCCC4)ccc3o2)cc1
  Ecoli rRNA inh = · | Ecoli rRNA inh OD600 = · | Ecoli rRNA inh RFP = · | Beta cell apopt = 10 | FGF22 binding = · | MLL AF4-AF9 inh = · | ALR H2O2 inh = 2 | Calb FLC = ? | RanGTP-Impb inh = -2.3 | T cruzi inh = 51

smiles: Cc1cc(C)c(C)c(S(=O)(=O)N[C@@H](C)C(=O)OC(C)C(=O)NC(N)=O)c1C (stereo not given in full)
  Ecoli rRNA inh = 2 | Ecoli rRNA inh OD600 = 5 | Ecoli rRNA inh RFP = -4.1 | Beta cell apopt = -1 | FGF22 binding = i | MLL AF4-AF9 inh = -1.4 | ALR H2O2 inh = · | Calb FLC = ? | RanGTP-Impb inh = 1.9 | T cruzi inh = 3

Further records follow:
SMILES	Ecoli rRNA inh	Ecoli rRNA inh OD600	Ecoli rRNA inh RFP	Beta cell apopt	FGF22 binding	MLL AF4-AF9 inh	ALR H2O2 inh	Calb FLC	RanGTP-Impb inh	T cruzi inh
COc1cc(/C=N/n2cnnc2)ccc1OC(=O)c1ccco1	4	8	2.3	-1	i	-1.3	12	12	-1.7	-15
CSc1ccccc1NC(=O)CN(C)CC(=O)Nc1cc(C)ccc1C	3	4	1.1	1	i	-2.6	-1	-7	2.8	-5
CCc1cc[n+](CC(=O)Nc2ccc(Cl)cc2Cl)cc1	18	25	4.1	-2	i	2.0	-1	17	3.5	7
Cc1ccc(CN(C(=O)c2csnn2)C(C(=O)NC2CCCC2)c2ccco2)cc1 (stereo not given)	-5	-7	1.0	3	i	0.7	0	5	0.4	-18
O=C(COc1ccc(/C=N/NC(=O)C(=O)N2CCCCCC2)cc1)Nc1ccccc1Cl	-3	8	-4.4	-2	i	0.7	-1	3	2.8	0
CCN1CCN(c2nc3c(c(=O)[nH]c(=O)n3C)n2Cc2ccccc2)CC1	10	11	-0.4	10	i	-0.1	2	-7	-5.7	-13
C[C@@H](NC(=O)[C@@H]1Cc2ccccc2CN1)C(=O)Nc1ccc2c(c1)OCCO2	3	-2	0.2	2	i	1.9	-21	·	3.4	6
Cc1nc(SCc2ccccc2)n[nH]1	11	11	0.0	·	i	-2.7	14	-10	-1.6	-11
Cc1ccccc1NS(=O)(=O)c1ccc(OCC(=O)NCc2ccco2)cc1	·	·	·	-11	·	·	3	-3	0.1	-5
CCN1CCC(O)(C#Cc2ccccc2)CC1	14	11	3.8	1	i	-1.3	9	-5	1.3	3
COc1cccc(CNC(=O)CCC(=O)N2CCSc3ccccc32)c1OC	3	-14	-2.0	3	i	-2.2	-30	-1	-3.5	1
Cc1cccc(N2C(=O)N3[C@@H]4c5ccccc5OC[C@@H]4[C@@H](c4ccccc4)[C@@]3(C)C2=O)c1	21	8	4.4	-1	i	-34	-21	7	?	-3
O=S(=O)(Nc1nccs1)c1ccc(F)cc1	7	-3	-4.8	-2	i	-3.0	-5	61	7.8	-7
O=C(O)CSc1nnc(-c2ccco2)o1	·	·	·	2	·	·	-8	-4	-1.0	-1
CC(C)(C)N(Cc1ccccc1)C(=O)COC(=O)c1ccc(S(=O)(=O)N2CCOCC2)cc1	0	-1	6.6	2	i	-11	-2	·	·	·
O=C(Nc1cccnc1)OCc1ccccc1	3	6	-5.6	4	i	0.8	-1	-2	3.3	-3
COc1cc(/C=C/C(=O)N(C)CC(=O)Nc2ccccc2Br)cc2c1OCCO2	·	·	·	-6	i	3.3	-1	·	·	·
O=C(COc1ccccc1N1C(=O)C2C3C=CC(C3)C2C1=O)c1ccccc1 (stereo not given)	2	2	-0.4	-6	i	-6.4	-9	1	?	4
CCOc1cc(C2C(C#N)=C(N)OC(C)=C2C(C)=O)cc(Br)c1O (stereo not given)	·	·	·	4	·	·	·	-33	19*	-2
COc1cccc(/C=N/NC(=O)CCn2cnc3ccccc32)c1	-5	-8	3.2	-3	i	·	·	-7	3.0	6
CCC(=O)N(CCC(Cc1ccccc1)c1ccc2c(c1)OCO2)Cc1ccccc1F (stereo not given)	·	·	·	1	·	·	-31	0	0.9	36
CCOc1ccc(S(=O)(=O)N/N=C(\C)C2CCCCC2)cc1	13	5	6.3	0	i	1.0	·	4	-1.7	1

The list is partial; rates above refer to the full screens.
